Compound activity deposited in PubChem BioAssay by National Center for Advancing Translational Sciences (NCATS).
Cruzain inh noDet: qHTS Assay for Promiscuous and Specific Inhibitors of Cruzain (without detergent); Cruzipain (Trypanosoma cruzi), P25779; purified cruzain, Z-FR-AMC fluorescence, no detergent; Potency, µM, for inactives: max response, negative = inhibition, hits mostly inhibitors; hit rate 2.3% among 200,000;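 further: plate controls were enzyme without inhibitor for no effect and buffer without enzyme for full effect; nearly all actives have a fitted effect of over 40% in size; top concentration of the series not given in the record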
Target sequence (P25779 123-467 limits assumed): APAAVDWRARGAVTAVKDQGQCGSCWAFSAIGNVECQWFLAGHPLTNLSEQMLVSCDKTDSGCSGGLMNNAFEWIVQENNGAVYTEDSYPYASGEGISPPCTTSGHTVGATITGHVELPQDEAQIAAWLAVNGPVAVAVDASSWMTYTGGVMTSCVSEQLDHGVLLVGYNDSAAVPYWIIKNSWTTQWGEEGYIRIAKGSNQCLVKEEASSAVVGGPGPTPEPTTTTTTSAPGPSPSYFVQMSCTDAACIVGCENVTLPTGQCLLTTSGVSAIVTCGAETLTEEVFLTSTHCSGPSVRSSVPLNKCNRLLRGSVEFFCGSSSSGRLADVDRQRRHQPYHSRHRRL
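Detergent-free condition (0.00005% Triton X-100) in acetate buffer pH 5.5 with DTT. 1.5 nM enzyme and compound were pre-mixed 15 min, then 2 uM Z-FR-AMC substrate added; reaction progress from fluorescence change between first and third reads (60 s).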
RE007 growth inh: qHTS Assay for Inhibitors of the HIV-1 protein Vpr; Potency, µM (top dose mostly 92.2 µM), for the others: top-dose activity change, negative = less growth; hit rate 0.21% among 360,000; S. pombe RE007 Vpr strain, BacTiter-Glo ATP luminescence, 24 h; control for the full effect not named in the record; AID 651644, 2012; active = well fitted falling curve with a large enough effect; inconclusive = small, poorly fitted or top-dose-only effect; inactive = no such curve, though single readings can be large or run the other way;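 further: on the % scale 0 is the no-effect control and ±100 the full control effect; nearly all actives have a fitted effect of over 50% in size; the assay follows cell death caused by Vpr and the record does not say whether a fall means rescue or toxicity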
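Fission yeast strain RE007, carrying one chromosomally integrated HIV-1 vpr copy, was seeded at OD 0.01 in PMG+AL medium with 23 nL pinned compound. After 24 h at 30 °C and 99% humidity, viability was read by BacTiter-Glo luminescence.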
SARS PLpro yeast: qHTS of Yeast-based Assay for SARS-CoV PLP; S. cerevisiae expressing SARS-CoV PLpro, growth rescue; control for the full effect not named in the record; Potency, µM (titrated, usually from 32.9 µM), without a hit: at the highest dose activity, positive = growth rescue; hit rate 0.19% among 330,000; AID 485353, 2010; active means well fitted rising curve with a large enough effect; inconclusive means small, poorly fitted or top-dose-only effect; inactive means no such curve, though single readings can be large or run the other way; further: 0% is about no effect; nearly all actives have a fitted effect of over 55% in size; growth read by luminescence after 48 h
NS1 inh: qHTS Assay for Inhibitors of Influenza NS1 Protein Function; Potency, µM (top dose mostly 46.1 µM), for inactives: at the top dose activity, positive = more growth; S. cerevisiae slowed by influenza A NS1, growth recovery by OD600; hit rate 0.4% among 270,000; AID 2326, 2010; active means well fitted rising curve with a large enough effect; inconclusive means small, poorly fitted or top-dose-only effect; inactive means no such curve, though single readings can be large or run the other way; further: nearly all actives have a fitted effect of over 50% in size
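Read-out: OD600 growth recovery of NS1-expressing budding yeast. Cells grown overnight at 30C in -URA glucose medium, washed, resuspended and diluted 1:100 in 2% galactose assay medium, pH 6.0. Same strain lacking NS1 served as positive control.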
Cruzain inh Det: qHTS Assay for Promiscuous and Specific Inhibitors of Cruzain (with detergent) | purified cruzain, Z-FR-AMC fluorescence, 0.01% Triton | hit rate 0.43% among 200,000 | Potency, µM, for the others: max response, negative = inhibition, hits mostly inhibitors;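 further: plate controls were neutral wells for no effect and buffer without enzyme for full effect; nearly all actives have a fitted effect of over 40% in size; top concentration of the series not given in the record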
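Compounds were screened in titration against cruzain (1.5 nM) with 0.01% Triton X-100 to counter colloidal aggregation. Activity was the AMC fluorescence increase over 60 s after adding 2 uM Z-FR-AMC at pH 5.5.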
LASV entry inh: qHTS for Inhibitors of binding or entry into cells for Lassa Virus; Lassa virus pseudotype entry inhibition, cell reporter; control for the full effect not named in the record; Potency, µM (highest dose often 37.9 µM), for inactives: at the top dose activity change, negative = inhibition, usual class: inhibitors; hit rate 1.2% among 300,000; active means well fitted inhibition curve with a large enough effect; inconclusive means small, poorly fitted or top-dose-only effect, or effect the other way; inactive means flat fitted curve, though single readings scatter; tested in HEK293 cells; further: on the % scale 0 is the no-effect control and ±100 the full control effect; nearly all actives have a fitted effect of over 50% in size; luciferase read-out
Marburg entry inh: qHTS for inhibitors of binding or entry into cells for Marburg Virus. Potency, µM (series often up to 37.8 µM), for inactives: at the highest dose activity change, negative = inhibition, most hits filed as inhibitors. hit rate 1.8% among 300,000. Marburg virus pseudotyped entry inhibition, cell reporter; control for the full effect not named in the record; about a third of the inactives were read at about 46 µM; active = well fitted inhibition curve with a large enough effect; inconclusive = small, poorly fitted or top-dose-only effect, or effect the other way; inactive = flat fitted curve, though single readings scatter; tested in HEK293 cells; about a fifth of its hits are not listed in these tables; further: on the % scale 0 is the no-effect control and ±100 the full control effect; luciferase read-out
2A StopGo: High Throughput Screening for Foot and Mouth Disease Virus Antivirals. human cells with a luciferase reporter of 2A StopGo recoding; control for the full effect not named in the record. Potency, µM (doses to about 57.9 µM), without a hit: at the highest dose signal change, negative = less light. hit rate 1.2% among 410,000. AID 1159524, 2015; active = well fitted falling curve with a large enough effect; inconclusive = small, poorly fitted or top-dose-only effect; inactive = no such curve, though single readings can be large or run the other way; tested in HEK293T cells; further: on the % scale 0 is the no-effect control and ±100 the full control effect; nearly all actives have a fitted effect of over 45% in size; luciferase light after 4 h
The depositor's hits bear a star; ? = inconclusive; . = no result given; & = joins results of further samples; [ ] = dose if it differs, or a comment. Unless noted, the call rests on the fitted dose curve; in most records, active means well fitted curve in the direction sought with a large enough effect; inconclusive means small, poorly fitted or top-dose-only effect, or another doubt; inactive means no such curve, though single readings can be large; an effect the other way counts as inactive or inconclusive. Potency means the concentration at half of the fitted maximal effect.

SMILES	Cruzain inh noDet	RE007 growth inh	SARS PLpro yeast	NS1 inh	Cruzain inh Det	LASV entry inh	Marburg entry inh	2A StopGo
CN1CCN(CCC(C#N)(c2ccccc2)c2ccccc2)CC1	-7%	5%	4%	-1%	1.9%	-1%	-28%[46.1 µM]	-17%
CCCCC(=O)Nc1cccc(-c2cn3ccccc3n2)c1	5%	2%	-2%	-7%	-0.8%	0%	-5%	.
O=C(CSCCc1ccccn1)Nc1cccnc1Cl	-3%	5%	-7%	5%	2.0%	-27%[14.3 µM]	-2%	-2%
CCC(=O)c1cccc(-c2ccccc2)c1CC	.	1%	.	.	.	2%[46.1 µM]	3%[46.1 µM]	-1%
CC(C)CC(=O)NC(=S)Nc1nc(-c2ccc(Cl)cc2)cs1	?	-9%	-7%	8%	-6.1%	4%	21%	0%
Cc1cc(NC(=O)c2cc(-c3ccco3)on2)nn1Cc1ccc(Cl)cc1	-4%	5%	3%	1%	-9.8%	?	-11%	-22%
CCN(CC)CCN(C(=O)/C=C/c1cccs1)c1nc2ccc(Cl)cc2s1	.	22%	-2%	11%	.	.	.	?
COC(CNC(=O)c1ccc(N2CCC3(CC2)OCCO3)c([N+](=O)[O-])c1)OC	4%	-7%	-12%	5%	-2.7%	7%	-4%	-6%
O=C(NCc1cccnc1)c1nc(-c2cccs2)no1	.	2%	-2%	4%	.	9%	?	72%[activator]
COc1ccccc1-n1cnnc1SCC(=O)c1cc(C)n(Cc2cccs2)c1C	-4%	-3%	12%	-23%	-0.6%	-2%	3%	16%
CC(C)NCC(O)Cn1c2c(c3ccccc31)CCc1c-2cnn1-c1ccccc1 (stereo not given)	-2%	17%	-3%	-40%	-3.0%	7.1µM*	?	?
COc1ccc(C(=O)NCc2ccccc2OC)c(OC)c1	13%	2%	-5%	-163%	-1.6%	16%	-3%	36%[activator]
CC1CN(C(=O)c2ccc(NS(=O)(=O)c3cccc(Cl)c3)cc2)CC(C)O1 (stereo not given)	.	-7%	-1%	-9%	.	-24%	0%	-14%
COc1cccc(NC(=O)CCc2nc(-c3cccs3)no2)c1	9%	-10%	-3%	-11%	-4.2%	-3%[46.1 µM]	-26%&-26%[46.1 µM]	15%&14%
Cc1ccc(C(=O)NC2CCN(CC(=O)Nc3ccccc3Cl)CC2)cc1	.	0%	?	-9%	.	-10%[46.1 µM]	6%[46.1 µM]	-13%
COc1ccc(C(C(=O)NC2CCCC2)N(Cc2cccs2)C(=O)c2ccn[nH]2)cc1OC (stereo not given)	.	-1%	1%	-4%	.	-26%[46.1 µM]	-25%[46.1 µM]	11%
COc1ccc(C(=O)/C=C/C(=O)N(CC(=O)NC2CCCCC2)Cc2cccs2)c(O)c1	.	-1%	-2%	-9%	.	.	.	6.3µM*
CCN1C(=O)c2cccc3c(NC(=O)c4ccc(OC)c(OC)c4)ccc1c23	?	0%	-3%	-7%	-3.4%	.	.	-17%
CCCCC(=O)N=c1sc2cc([N+](=O)[O-])ccc2n1C	.	8%	0%	.	.	16%[46.1 µM]	7%[46.1 µM]	-6%
CC1(c2ccc3c(c2)OCCCO3)NC(=O)N(CC(=O)Nc2cccc(C#N)c2)C1=O (stereo not given)	.	-13%	2%	.	.	8%	23%	-19%
O=C(O)c1ccc(NC(=O)c2cn(-c3ccccc3)nc2-c2cccc(Cl)c2)cc1	.	-10%	2%	10%	.	-2%[46.1 µM]	?	18%
O=C(CN1CCCC1)NC(=O)NC1CCCC1	.	0%	1%	6%	.	10%	26%[14.2 µM]	3%
CCCCn1c(N)c(N(CCC(C)C)C(=O)c2cccc(-n3cnnn3)c2)c(=O)[nH]c1=O	.	-4%	10%	.	.	-5%	-17%[46.1 µM]	-23%
COc1ccc(N2CCN(C(=O)Nc3cn(CC(C)C)c(=O)c4ccccc34)CC2)cc1	2%	.	.	.	-3.0%	26%[46.1 µM]	.	-17%
Cc1ccc(SCC(=O)Nc2ccc3c(c2)C(=O)NC3=O)cc1	.	-1%	0%	.	.	11%[46.1 µM]	1%[46.1 µM]	7%
CCOC(=O)C1CCN(C(=O)Cc2cccc3ccccc23)CC1	8%	-17%	15%	5%	0.5%	-1%	2%	-7%
O=C(Nc1ccc(O)c2c(=O)cc(-c3ccccc3Cl)oc12)c1ccccc1Cl	?	-16%	0%	-9%	2.0%&-2.6%	16%	-7%&-7%&-7%	4%
COc1ccc(CCCC(=O)NCCc2ccccc2)c(C)c1	.	3%	1%	-28%	.	.	.	8%
CCOc1ccc(/C=N/NC(=O)Cc2csc(Nc3cccc(C(F)(F)F)c3)n2)cc1	?	-2%	-8%	10µM*	-9.0%	?	?	0%
Cc1ccc(S(=O)(=O)N2CCN(CC(=O)N(CC(C)C)c3c(N)n(CC(C)C)c(=O)[nH]c3=O)CC2)c(C)c1	19%	-17%	2%	-8%	3.8%	19%	1%	0%
CN(C)C(=O)c1cc(C(=O)c2ccc(C(F)(F)F)cc2)c[nH]1	.	-6%	-2%	2%	.	.	.	22%
O=C1CSC(c2ccccc2)N1CCc1ccccc1 (stereo not given)	.	5%	-6%	-1%	.	.	.	-14%
Cc1cccc(Nc2nnc(SCC(=O)Nc3ccccc3[N+](=O)[O-])s2)c1	-17%	-17%	20%	9%	-7.0%	-15%	-24%	-25%
C=CC[n+]1c(-c2ccc(OC)c(OC)c2)csc1NNC(=O)Nc1ccccc1	-17%	7%	-2%	2%	-6.4%	10µM*	?	.
NS(=O)(=O)c1ccc(NC(=S)Nc2nn(Cc3ccc(Cl)cc3Cl)cc2Cl)cc1	?	20%	29%	26%	-3.9%	-4%	?	-5%
COc1ccccc1NC(=O)Nc1nnc(CC(=O)Nc2cccc(C)c2)s1	.	26%	-1%	1%	.	.	.	-28%
O=C(c1ccc([N+](=O)[O-])cc1)N1CCN(C(=O)C2CCCCC2)CC1	.	-7%	2%	2%	.	-4%[46.1 µM]	-11%[46.1 µM]	-17%
Cn1c(NNC(=O)C2CCCCC2)cc(=O)n(C)c1=O	.	-10%	2%	.	.	-11%	-2%	-12%
Cc1ccc(N2C(=O)C(Cc3ccc(O)cc3)NC2=S)cc1C (stereo not given)	8%	-3%	13%	7%	-1.4%	4%	2%	-14%
Cc1cc2oc(C(=O)Nc3nc(-c4ccccc4)ns3)c(C)c2cc1Cl	?	.	.	.	1.7%	22%[46.1 µM]	-2%[46.1 µM]	-28%
CCC1(C)Cc2ccccc2-c2nc(SC)[nH]c(=O)c21 (stereo not given)	.	-7%	-4%	-13%	.	?	?	-24%
CCOC(=O)c1c(NC(=O)c2cc(-c3ccc(Cl)cc3)on2)sc2c1CCCC2	3%	.	.	.	-0.6%	13%[46.1 µM]	?	-20%
Cc1c(Nc2ccc(C=O)cc2)c(=O)n(-c2ccccc2)n1C	.	5%	0%	-5%	.	?	7%[46.1 µM]	-9%
Nc1ncnc2nc(SCC(=O)N3CCN(c4ccccc4)CC3)[nH]c12	-2%	-25%	-2%	5%	3.5%	5%	2%	-7%
Cc1ccc(-c2cc(C(=O)N/N=C/C=C/c3ccco3)c3ccccc3n2)cc1C	25µM*	-14%	?	15%	-2.7%	?	2.5µM*	1.6µM*
CCOC(=O)c1scc(-c2ccc(C)cc2)c1S(=O)(=O)Nc1ccc(OC)c(Cl)c1	-2%	.	.	.	1.3%	-5%[46.1 µM]	.	23%
O=C(Nc1ccccc1)c1ccc(C(=O)Nc2ccccc2)nc1	.	19%	0%	0%	.	22%	6%[46.1 µM]	47%[activator]
COc1ccc(S(=O)(=O)NCCOc2ccccc2)cc1C	.	11%	-2%	-12%	.	7%[46.1 µM]	24%[46.1 µM]	21%
COc1ccc(-c2nn(-c3ccccc3)cc2/C=C/C(=O)OCC(=O)Nc2ccc(C#N)cc2)cc1	?	2%	7%	6%	-13%	-7%	3%	?
Cc1cc(S(=O)(=O)Nc2ccc(-c3ccc(N4CCCCCC4)nn3)cc2)c(C)cc1Cl	?	.	.	.	-5.9%	?	.	52%[activator]
CCCCOc1ccc(-c2cn3ccccc3n2)cc1[N+](=O)[O-]	12%	?	-31%	-11%	-7.7%	?	?	46%[activator]
COc1ccc(C2(c3ccc(OC)cc3)NC(=O)N(CC(=O)NC3(C#N)CCCC3)C2=O)cc1	.	19%	0%	.	.	-9%	0%	-25%
Cc1ccc(NC(=O)C(C)Sc2nnc(C)n2C)cc1 (stereo not given)	.	1%	-11%	-15%	.	.	.	2%
COc1ccc(C)cc1NC(=O)Nc1ccccc1	3%	-2%	-7%	-67%	-6.7%	1%	0%	-17%
COc1cc(C)c(Cl)cc1S(=O)(=O)N1CCSC1	.	2%	-5%	-1%	.	7%	-9%	29%
Cc1ccccc1C(=O)c1cccn1CC(=O)NCc1ccccc1	?	-26%	-1%	.	-8.2%	-2%[46.1 µM]	?	39%&24%[activator]
CN(CCO)c1nc(NCc2ccccc2)c2cnn(C)c2n1	.	3%	5%	-3%	.	.	.	-14%
COc1ccc(Cc2nnc(SCc3nc4ccccc4c(=O)[nH]3)n2C)cc1	-2%	-7%	2%	9%	0.6%	-14%	1%	.
CC(C)c1cc(C(=O)NC2CCCCC2)no1	-16%	1%	5%	4%	0.2%	-11%	?	53%[activator]
CCc1ccc(C(=O)c2cn(CC(=O)Nc3cc(OC)ccc3OC)c3ccc(C)cc3c2=O)cc1	?	.	.	.	-6.2%	-7%[46.1 µM]	-26%[46.1 µM]	-23%
NC(=S)Nc1ccc(C(F)(F)F)cc1Cl	.	11%	-1%	0%	.	?	?	12%
CCN1CCN(Cc2nc3c(c(=O)n(C)c(=O)n3C)n2CCCc2ccccc2)CC1	2%	.	1%	0%	3.2%	.	-5%	.
O=C(CCNC(=O)c1ccc([N+](=O)[O-])cc1)NNC(=O)c1ccncc1	.	6%	6.3µM*	-3%	.	.	.	-3%
